Bioassay records (PubChem)
RE007 growth inh: qHTS Assay for Inhibitors of the HIV-1 protein Vpr; 360,000 tested, 0.21% active; S. pombe RE007 Vpr strain, BacTiter-Glo ATP luminescence, 24 h; control for the full effect not named in the record; Potency, µM (highest dose often 92.2 µM), for inactives: top-dose activity change, negative = less growth; active = well fitted falling curve with a large enough effect; inconclusive = small, poorly fitted or top-dose-only effect; inactive = no such curve, though single readings can be large or run the other way;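 further: on the % scale 0 is the no-effect control and ±100 the full control effect; nearly all actives have a fitted effect of over 50% in size; the assay follows cell death caused by Vpr and the record does not say whether a fall means rescue or toxicity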
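Fission yeast strain RE007, carrying one chromosomally integrated HIV-1 vpr copy, was seeded at OD 0.01 in PMG+AL medium with 23 nL pinned compound. After 24 h at 30 °C and 99% humidity, viability was read by BacTiter-Glo luminescence.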
Cruzain inh noDet: qHTS Assay for Promiscuous and Specific Inhibitors of Cruzain (without detergent); 200,000 tested, 2.3% active; purified cruzain, Z-FR-AMC fluorescence, no detergent; Potency, µM, inactives show max response, negative = inhibition, actives largely listed as inhibitors; AID 1476, 2009;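 further: plate controls were enzyme without inhibitor for no effect and buffer without enzyme for full effect; nearly all actives have a fitted effect of over 40% in size; top concentration of the series not given in the record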
Target sequence (P25779 123-467 limits assumed): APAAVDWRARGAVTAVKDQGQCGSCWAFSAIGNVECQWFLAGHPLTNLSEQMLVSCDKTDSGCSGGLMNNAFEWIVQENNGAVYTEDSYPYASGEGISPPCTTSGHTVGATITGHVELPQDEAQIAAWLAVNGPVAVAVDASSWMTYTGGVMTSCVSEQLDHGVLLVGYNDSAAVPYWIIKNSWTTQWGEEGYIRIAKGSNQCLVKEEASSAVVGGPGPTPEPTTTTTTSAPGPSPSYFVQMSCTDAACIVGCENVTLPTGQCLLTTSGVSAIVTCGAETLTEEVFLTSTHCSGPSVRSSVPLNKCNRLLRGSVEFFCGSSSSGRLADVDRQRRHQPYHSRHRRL
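Purified cruzain at 1.5 nM, pre-incubated 15 min with compound at room temperature in 100 mM sodium acetate pH 5.5, 5 mM DTT, 0.00005% Triton X-100. Reaction started with 2 uM Z-FR-AMC; AMC fluorescence increase over 60 s gives rate.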
NS1 inh: qHTS Assay for Inhibitors of Influenza NS1 Protein Function; S. cerevisiae slowed by influenza A NS1, growth recovery by OD600; Potency, µM (series often up to 46.1 µM), inactives show at the highest dose activity, positive = more growth; 270,000 tested, 0.4% active; active means well fitted rising curve with a large enough effect; inconclusive means small, poorly fitted or top-dose-only effect; inactive means no such curve, though single readings can be large or run the other way; further: nearly all actives have a fitted effect of over 50% in size
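Recovery from NS1-induced slow growth read by OD600 in budding yeast switched to galactose assay medium (pH 6.0, -URA) at 1:100 dilution. Compound 23 nl per well; the matching strain lacking NS1 serves as control.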
Lassa entry inh: qHTS for Inhibitors of binding or entry into cells for Lassa Virus; Lassa virus pseudotype entry inhibition, cell reporter; control for the full effect not named in the record; Potency, µM (doses to about 37.9 µM), without a hit: top-dose activity change, negative = inhibition, usual class: inhibitors; 300,000 tested, 1.2% active; active means well fitted inhibition curve with a large enough effect; inconclusive means small, poorly fitted or top-dose-only effect, or effect the other way; inactive means flat fitted curve, though single readings scatter; tested in HEK293 cells; further: on the % scale 0 is the no-effect control and ±100 the full control effect; nearly all actives have a fitted effect of over 50% in size; luciferase read-out
SARS PLpro yeast: qHTS of Yeast-based Assay for SARS-CoV PLP; S. cerevisiae expressing SARS-CoV PLpro, growth rescue; control for the full effect not named in the record; Potency, µM (top dose mostly 32.9 µM), for inactives: at the top dose activity, positive = growth rescue; 330,000 tested, 0.19% active; active means well fitted rising curve with a large enough effect; inconclusive means small, poorly fitted or top-dose-only effect; inactive means no such curve, though single readings can be large or run the other way; further: 0% is about no effect; nearly all actives have a fitted effect of over 55% in size; growth read by luminescence after 48 h
2A StopGo: High Throughput Screening for Foot and Mouth Disease Virus Antivirals; human cells with a luciferase reporter of 2A StopGo recoding; control for the full effect not named in the record; Potency, µM (titrated, usually from 57.9 µM), for the others: at the highest dose signal change, negative = less light; 410,000 tested, 1.2% active; AID 1159524, 2015; active = well fitted falling curve with a large enough effect; inconclusive = small, poorly fitted or top-dose-only effect; inactive = no such curve, though single readings can be large or run the other way; tested in HEK293T cells; further: on the % scale 0 is the no-effect control and ±100 the full control effect; nearly all actives have a fitted effect of over 45% in size; luciferase light after 4 h
MARV entry inh: qHTS for inhibitors of binding or entry into cells for Marburg Virus; Potency, µM (doses to about 37.8 µM), for inactives: at the highest dose activity change, negative = inhibition, usual class: inhibitors; 300,000 tested, 1.8% active; Marburg virus pseudotyped entry inhibition, cell reporter; control for the full effect not named in the record; about a third of the inactives were read at about 46 µM; AID 540276, 2011; active = well fitted inhibition curve with a large enough effect; inconclusive = small, poorly fitted or top-dose-only effect, or effect the other way; inactive = flat fitted curve, though single readings scatter; tested in HEK293 cells; about a fifth of its hits are not listed in these tables; further: on the % scale 0 is the no-effect control and ±100 the full control effect; luciferase read-out
Cruzain Triton: qHTS Assay for Promiscuous and Specific Inhibitors of Cruzain (with detergent); Cruzipain (Trypanosoma cruzi), P25779; purified cruzain, Z-FR-AMC fluorescence, 0.01% Triton; Potency, µM, without a hit: max response, negative = inhibition, usual class: inhibitors; 200,000 tested, 0.43% active; AID 1478, 2009;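 further: plate controls were neutral wells for no effect and buffer without enzyme for full effect; nearly all actives have a fitted effect of over 40% in size; top concentration of the series not given in the record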
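Read-out: AMC fluorescence (360 nm excitation, 450 nm emission), four reads over 2 min, first-to-third difference used. Conditions: cruzain 1.5 nM, Z-FR-AMC 2 uM, pH 5.5 acetate, 5 mM DTT, 0.01% Triton X-100.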
Starred values were filed as active, the others as inactive; u = inconclusive; x = not tested or not shown; & = joins results of further samples; [ ] = dose if it differs, or a comment. Unless noted, the call rests on the fitted dose curve; in most records, active means well fitted curve in the direction sought with a large enough effect; inconclusive means small, poorly fitted or top-dose-only effect, or another doubt; inactive means no such curve, though single readings can be large; an effect the other way counts as inactive or inconclusive. Potency means the concentration at half of the fitted maximal effect.

SMILES	RE007 growth inh	Cruzain inh noDet	NS1 inh	Lassa entry inh	SARS PLpro yeast	2A StopGo	MARV entry inh	Cruzain Triton
Cc1cc(C)c(NC(=O)CSc2nc(COc3ccccc3)nc3ccccc23)c(C)c1	8%	-3%	10%	u	2%	x	u	2.9%
Nc1cc(Cl)ccc1Oc1ccc2ccccc2c1	u	0%	-12%	4%	-27%	39%[activator]	0%&0%	-8.5%
CN(C)c1ccc(C(C(=O)NCC2CCCO2)N(C(=O)c2snc(C(N)=O)c2N)c2ccc3c(c2)OCO3)cc1 (stereo unspecified)	12%	x	-16%	u	-9%	-17%	-4%[46.1 µM]	x
COC(=O)C(Cc1ccccc1)NC(=O)CC(C)CC(=O)Nc1ccc(OC)cc1OC (stereo unspecified)	-11%	x	-4%	x	1%	-7%	x	x
CCOC(=O)c1c(NC(=O)COC(=O)CC(NC(C)=O)c2ccccc2)sc(C(=O)NC)c1C (stereo unspecified)	-2%	x	x	10%	-5%	5%	-8%	x
CCNS(=O)(=O)c1ccc(NC(=O)CC(C)c2ccccc2)cc1 (stereo unspecified)	-1%	x	x	u	0%	-7%	1%	x
CCc1cccc(CC)c1NC(=O)C1CCN(C(=O)c2ccco2)CC1	6%	x	15%	0%	-3%	-14%	-7%[46.1 µM]	x
Cc1nc2ccccc2c2oc(C(=O)NCC3CCCO3)cc12 (stereo unspecified)	9%	-4%	-13%	9%	-6%	u	-28%	0.9%
CCn1cc(C(=O)O)c(=O)c2cc(F)c(N/N=C/c3ccccc3)cc21	x	-2%	x	-3%	-1%	u	-33%	-1.4%
CC(=O)Nc1ccc(Sc2ccccc2C(=O)Nc2ccc(F)cc2)cn1	20%	x	x	-9%	0%	u	13%[46.1 µM]	x
CCCCCCC(=O)Oc1cccc(N2C(=O)C3CCCCC3C2=O)c1 (stereo unspecified)	1%	x	x	24%	1%	-17%	9%	x
Cc1ccccc1NS(=O)(=O)c1cc(S(C)(=O)=O)ccc1C	-8%	-6%	13%	-23%	13%	33%[activator]	u	1.6%
COc1ccc(CC(=O)OCC(=O)NCc2ccc(F)cc2)cc1	9%	x	x	12%[46.1 µM]	-14%	-6%	34%[46.1 µM]	x
COc1ccc(NC(=O)CSc2ccc3c(c2)OCCO3)cc1	3%	x	x	24%[46.1 µM]	1%	-10%	-6%[46.1 µM]	x
CCOc1c2ccc(C(=O)NCc3ccc4c(c3)OCO4)cc2nn1CCOC	3%	-7%	-1%	x	4%	36%[activator]	x	0.8%
COc1cccc2cc(C(=O)NCc3ccco3)c(=Nc3ccc(C(=O)O)cc3)oc12	-7%	-27%	-6%	4%	9%	x	8%	-2.8%
O=C(N1CCc2[nH]c3ccccc3c2C1)C(F)(F)F	-7%	x	-3%	x	-1%	3%	x	x
Cc1cccc(C(=O)N2CCN(Cc3nc4sc5c(c4c(=O)[nH]3)CCCC5)CC2)c1	-16%	x	3%	-27%[46.1 µM]	-2%	-15%	-2%[46.1 µM]	x
Cc1cccc(N2CCC3(CC2)C(=O)NC(=O)NC3=O)c1	-16%	x	x	-2%	x	-17%	11%	x
CCc1ccccc1NC(=O)CN(Cc1ccccc1)S(=O)(=O)c1ccc(Br)cc1	x	-8%	x	24%[46.1 µM]	x	0%	x	-5.1%
O=C1NC(=Nc2ccc(O)cc2)S/C1=C\C=C\c1ccco1	3%	x	7%	x	1%	7%	x	x
O=C(CCNS(=O)(=O)c1ccccc1F)OCc1ccccc1Cl	8%	x	x	-6%[46.1 µM]	-6%	-9%	3%[46.1 µM]	x
CC(C(=O)NC(=O)NC1CCCCC1)N(C)CC(=O)Nc1ccc(F)c(F)c1F (stereo unspecified)	-5%	x	x	-25%	6%	u	u	x
N=C1c2ccccc2CN1c1ncccn1	3%	x	x	x	-5%	-8%	-10%[46.1 µM]	x
CCOc1ccc(Cc2nc(C)c(CC(=O)N3CCOCC3)c(=O)[nH]2)cc1	13%	-2%	2%	8%	-3%	-13%	7%	5.5%
O=C(c1cccs1)N1CCc2ccccc21	-27%	-5%	-28%	44%[14.3 µM]	-8%	68%[activator]	25%	1.0%
CCOc1ccc(/C=C2\SC(=S)NC2=O)cc1OC	-23%	x	-46%	3%	-4%	13%	7%	x
FC(F)(F)c1ccc(Cl)c(-n2c(-c3cc(C4CC4)[nH]n3)n[nH]c2=S)c1	-9%	x	-9%	18%	0%	-11%	-6%	x
COc1ccc(C(CC(=O)Nc2ccc(C)c(C)c2)N2Cc3ccccc3C2=O)cc1OC (stereo unspecified)	x	u	x	-14%[46.1 µM]	x	58%[activator]	x	-5.7%
COC(=O)c1c(NC(=O)Cc2coc3cc(C)ccc23)sc2c1CCCC2	x	-25%	x	7%[46.1 µM]	x	11%	7%[46.1 µM]	-4.1%
S=C(Cc1ccc(Cl)cc1)N1CCOCC1	-12%	x	x	-7%[46.1 µM]	-2%	8%	-21%[46.1 µM]	x
CCCCOC(=O)C1CCCC(C(=O)OCCCC)N1 (stereo unspecified)	-16%	-3%	-5%	0%	8%	-10%	-2%	2.8%
O=C(NC(CO)C(O)c1ccc([N+](=O)[O-])cc1)C(Cl)Cl (stereo unspecified)	-13%	-14%	2%	x	-4%	-17%	x	1.5%
COc1ccc(C(=O)NC(=S)Nc2cccc(NC(=O)c3ccco3)c2)cc1[N+](=O)[O-]	-5%	-3%	9%	2%	-1%	-30%	0%	-1.1%
O=C(NCc1cccnc1)C12CC3CC(CC(Cl)(C3)C1)C2	-3%	x	-12%	-3%[46.1 µM]	2%	0%	u	x
COC(=O)c1ccccc1NC(=O)CC(NCc1ccccc1)C(=O)O (stereo unspecified)	-5%	x	3%	u	x	30%[activator]	0%	x
CC1(C(=O)CSc2n[nH]c(-c3ccccc3Cl)n2)CCC(=O)O1 (stereo unspecified)	x	-7%	15%	x	8%	x	-5%	-1.9%
Cc1ccsc1/C=N/NC(=O)C1C(=O)NCC1c1ccccc1 (stereo unspecified)	4%	x	1%	-27%[46.1 µM]	1%	25%	8%[46.1 µM]	x
Cc1ccc(Cn2c(=N)c(C(=O)NC3CCCC3)cc3c(=O)n4ccccc4nc32)cc1	0%	x	2%	x	-3%	-8%	x	x
Cc1cc2nc(C)c(Cc3ccccc3)c(=O)n2[nH]1	13%	2%	-19%	6%	1%	1%	3%	-1.3%
CCC(C)n1c(SCC(=O)NC(=O)Nc2ccc3c(c2)OCCO3)nc2ccccc2c1=O (stereo unspecified)	0%	-17%	-9%	u	-1%	x	0%	1.2%
CCOc1ccc(CNC(=O)c2cccc(Nc3nc4ccccc4n4nnnc34)c2)cc1OC	x	-1%	x	-17%[46.1 µM]	x	7.1µM*	u	-1.5%
O=C(NCc1ccco1)C1CCN(C(=O)c2cc3sccc3n2Cc2ccc(F)cc2)CC1	9%	u	u	10µM*	-2%	x	4%&-27%	-3.9%
CCOC(=O)c1ccc(NC(=O)CSc2nnc(-c3ccncc3)n2C)cc1	6%	-2%	-15%	19%	-1%	5%	-5%	2.2%
NC(=O)N=Nc1c(O)n(Cc2ccccc2)c2ccc(Br)cc12	1%	x	5%	-23%[46.1 µM]	-2%	-17%	u	x
CCOc1ccc(S(=O)(=O)N2CCC(C(=O)OCc3ccc(OC)cc3)CC2)cc1	1%	x	x	u	-4%	u	-4%	x
CC1CCN(C(=O)c2ccccc2NC(=O)c2cccs2)CC1	-17%	x	6%	x	16%	-15%	x	x
O=C(Cc1cccs1)Nc1ccc(S(=O)(=O)N2CCCC2)cc1	-8%	x	4%	4%[46.1 µM]	0%	33%[activator]	20%[46.1 µM]	x
O=C1CCC(C(=O)N2CCCC(N3CCN(c4cccc(C(F)(F)F)c4)CC3)C2)=NN1 (stereo unspecified)	2%	x	-7%	x	-1%	-5%	x	x
Cc1nn(S(=O)(=O)N(C)C)c(C)c1CN1C(=O)c2ccccc2C1=O	11%	1%	-21%	5%	-4%	x	0%	4.5%
CN1C(=O)c2[nH]nc(-c3ccc(F)cc3)c2C1c1cccc(O)c1 (stereo unspecified)	x	9%	x	25%[46.1 µM]	x	-23%	12%[46.1 µM]	-4.4%
O=c1[nH]ncc(NCCc2ccccc2)c1Cl	41%	x	2%	-2%	0%	-4%	-5%[46.1 µM]	x
O=C(Oc1nsnc1N1CCOCC1)N(c1ccccc1)c1ccccc1	2%	2%	-51%	7%	-16%	u	4%	1.9%
CCCCSc1nc2ccc(Nc3nc(N4CCOCC4)nc(N4CCOCC4)n3)cc2s1	4%	u	u	u	4%	-13%	u	-1.7%
Cc1c(C(=O)N2CCN(c3ccccc3F)CC2)oc2c1C(=O)CC(C)(C)C2	14%	x	-15%	x	5%	0%	x	x
COc1ccc(NC(=S)N2CCN(S(=O)(=O)c3ccc(C)cc3)CC2)cc1	8%	x	-10%	5%	-7%	53%[activator]	9%	x
Cc1noc(C)c1COC(=O)Cc1ccc(Cl)cc1	-8%	4%	-18%	-19%	4%	-14%	7%	0.5%
CCOC(=O)C(Cc1ccc(O)cc1)Nc1nc2ccccc2o1 (stereo unspecified)	2%	x	x	u	x	-11%	15%	x
CCCCc1nc(SCc2ccc([N+](=O)[O-])cc2)n[nH]1	-16%	x	0%	x	0%	-13%	x	x
CCc1nc2oc3ccccc3c(=O)c2c(=O)n1CCOC	0%	0%	-3%	6%	-1%	25%	20%	-1.4%
(continued)
SMILES	RE007 growth inh	Cruzain inh noDet	NS1 inh	Lassa entry inh	SARS PLpro yeast	2A StopGo	MARV entry inh	Cruzain Triton
CC(=O)N1CCc2c(sc3c2c(=O)n(Cc2ccccc2)c(=O)n3CC(=O)NCC2CCCO2)C1 (stereo unspecified)	15%	x	-6%	x	1%	-12%	x	x
Cn1ncc2c(=S)nc(Cl)[nH]c21	u	x	x	-11%	x	-14%	u	x
Cc1ccsc1/C=C1/C(=O)NN(c2ccccc2)C1=O	-10%	x	x	0%	-1%	64%[activator]	u	x
CCN1CCN(CNC(=O)c2cnccn2)CC1	2%	1%	-2%	1%	-1%	7%	u	8.5%
CC(C)CCOc1ccc(CO[C@@H]2[C@H]3OC(C)(C)O[C@H]3O[C@@H]2C(O)CO)cc1 (stereo partly specified)	-1%	x	1%	x	2%	0%	x	x
COc1ccc(C2(O)CN(c3ccccc3)C3=[N+]2CCS3)cc1OC (stereo unspecified)	-14%	x	x	-26%	1%	-9%	-19%[46.1 µM]	x
